High-throughput results as filed in PubChem.
ID4 SMM – binders of human ID4 protein, primary screen, biochemical, small molecule microarray, single point; Flag-ID4 binding, fluorescence F/B; calls only; DNA-binding protein inhibitor ID-4 (Homo sapiens), P47928; actives 1.2% (n = 31,000); AID 624137, 2012;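 active means spot signal over background at p below 0.07 in all four prints; compounds were printed on slides so no solution concentration is given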;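 further: a binder raises fluorescence above local background on the spot; about 2 pmol printed per array spot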
Target sequence (P47928 whole entry, looked up): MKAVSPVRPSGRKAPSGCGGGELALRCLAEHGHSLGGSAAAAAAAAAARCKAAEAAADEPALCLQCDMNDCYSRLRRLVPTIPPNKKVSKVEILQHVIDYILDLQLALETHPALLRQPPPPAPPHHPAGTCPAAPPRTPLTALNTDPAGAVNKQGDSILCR
Calls only; i = inactive. Not all compounds are listed. The share of hits here may be higher or lower than overall.

| SMILES | ID4 SMM |
| --- | --- |
| [N-]=[N+]=NCc1ccccc1C[C@]1(C(=O)NCCN2CCOCC2)COC(c2ccc(OCCCO)cc2)=N1 | i |
| Cc1ccc(Cl)cc1NC(=O)CN(c1cccc(Cl)c1C)S(C)(=O)=O | i |
| O=C(CSc1ncn(-c2ccccc2)n1)Nc1ccc(Cl)cc1 | i |
| C[C@@H]1CN([C@H](C)CO)S(=O)(=O)c2ccc(C#Cc3cccnc3)cc2O[C@@H]1CN(C)CC1CCOCC1 | i |
| COCC#Cc1cnc2c(c1)C(=O)N([C@H](C)CO)C[C@@H](C)[C@@H](CN(C)C)O2 | i |
| O=C(CCN1CCCCC1)N[C@H]1CC[C@H](CC(=O)N2CCC(Cc3ccccc3)CC2)O[C@@H]1CO | i |
| O=C(Nc1sc2c(c1C(=O)NCc1ccco1)CCCC2)c1sc2ccccc2c1Cl | i |
| Cc1cccc(NC(=O)C(C)NS(=O)(=O)c2ccccc2)c1 (centres undefined) | i |
| CCn1c(SCC(=O)Nc2cccc(F)c2)nnc1-c1ccc(Cl)cc1Cl | i |
| O=C(N[C@@H]1CC[C@@H](CC(=O)N2CCCCC2)O[C@H]1CO)c1cccc(F)c1 | i |
| Cc1cc(C)c(NC(=O)CSc2nnc(-c3ccncc3)n2-c2ccccc2)c([N+](=O)[O-])c1 | i |
| O=C(O)C1CC=CCC1C(=O)Nc1ccc(S(=O)(=O)N2CCCc3ccccc32)cc1 (centres undefined) | i |
| COc1ccc(-c2cc(=O)c3c(O)cc(O)c(-c4cc(-c5cc(=O)c6c(O)cc(O)cc6o5)ccc4OC)c3o2)cc1 | i |
| C[C@@H]1CN([C@@H](C)CO)C(=O)CCCn2cc(nn2)CO[C@@H]1CN(C)CC1CCCCC1 | i |
| C/C=C/c1cnc2c(c1)C(=O)N([C@@H](C)CO)C[C@H](C)[C@H](CN(C)C(=O)C1CC1)O2 | i |
| C[C@H](CO)N1C[C@H](C)[C@@H](CN(C)Cc2ccccc2)Oc2ncc(Br)cc2C1=O | i |
| COc1cc(C(F)(F)F)nc2ccc(C#CCOC(=O)Nc3ccccc3)cc12 | i |
| Cc1cccc(OCC(=O)Nc2cccc(-c3nc4cc(Cl)ccc4o3)c2C)c1 | i |
| COCCCNC(=O)[C@@]1(Cc2ccccc2N=[N+]=[N-])N=C(c2ccc(OCCCO)cc2)O[C@H]1c1ccccc1 | i |
| O=C(C[C@@H]1CC[C@@H](NC(=O)NC2CCCCC2)[C@H](CO)O1)NCc1ccccc1 | i |

4 of these compounds, set out differently.
C/C=C/c1cnc2c(c1)C(=O)N([C@@H](C)CO)C[C@H](C)[C@H](CN(C)C(=O)C1CC1)O2
  ID4 SMM: i
COc1ccc(-c2cc(=O)c3c(O)cc(O)c(-c4cc(-c5cc(=O)c6c(O)cc(O)cc6o5)ccc4OC)c3o2)cc1
  ID4 SMM: i
CCn1c(SCC(=O)Nc2cccc(F)c2)nnc1-c1ccc(Cl)cc1Cl
  ID4 SMM: i
Cc1ccc(Cl)cc1NC(=O)CN(c1cccc(Cl)c1C)S(C)(=O)=O
  ID4 SMM: i

(more compounds)
| SMILES | ID4 SMM |
| --- | --- |
| COC(=O)N(C)C[C@H]1OCc2ccccc2-c2ccccc2C(=O)N([C@@H](C)CO)C[C@H]1C | i |
| COc1ccccc1C#Cc1ccc2c(c1)O[C@H](CN(C)Cc1cncnc1)[C@H](C)CN([C@H](C)CO)S2(=O)=O | i |
| Cc1c(NC(=O)CCN2C(=O)c3ccccc3C2=O)cccc1C(=O)O | i |
| CC(=O)Nc1cccc(-n2nnc(SCC(=O)c3ccccc3)n2)c1 | i |
| O=C(CCN1C(=O)c2ccccc2C1=O)Nc1ccc(-c2nc3ccccc3o2)cc1 | i |
| CNC[C@@H]1Oc2ncc(-c3cccc(F)c3)cc2C(=O)N([C@H](C)CO)C[C@@H]1C | i |
| CC(C)NS(=O)(=O)c1ccc(N2C(=O)CC3(CCCC3)C2=O)c(Cl)c1 | i |
| O=C(CSc1ncn(-c2ccccc2)n1)Nc1ccc(Cl)cc1Cl | i |
| O=C(N[C@H]1C=C[C@H](CC(=O)N2CCc3ccccc3C2)O[C@@H]1CO)C1CC1 | i |
| C[C@@H]1CN([C@H](C)CO)C(=O)c2cc(C#Cc3ccccc3F)cnc2O[C@@H]1CN(C)C(=O)C1CC1 | i |
| COc1ccc(N(CC(=O)N2CCOCC2)S(C)(=O)=O)c(OC)c1 | i |
| Cc1ccc(C(=O)Cn2c(NCCO)nc3ccccc32)cc1 | i |
| COc1cccc(NC(=O)CSc2nncn2C)c1 | i |
| CCCC#Cc1ccc2c(c1)O[C@@H](CN(C)Cc1ccccn1)[C@@H](C)CN([C@@H](C)CO)S2(=O)=O | i |
| COCC(=O)Nc1ccc2c(c1)[C@@H]1C[C@H](CC(=O)NCC(F)(F)F)O[C@H](CO)[C@@H]1O2 | i |
| CCOC(=O)c1c(-c2ccc(C)cc2)csc1NC(=O)c1cccc(OC(C)=O)c1 | i |
| NC(=O)CN(c1ccccc1)S(=O)(=O)c1ccc(F)cc1 | i |
| COc1ccc(-c2nnc(SCC(=O)O)n2-c2cccc(C(F)(F)F)c2)cc1OC | i |
| C[C@H](NC(=O)C[C@@H]1CC[C@@H](NC(=O)C2CC2)[C@@H](CO)O1)c1ccccc1 | i |
| O=C(Nc1ccc(F)cc1)N[C@@H]1C=C[C@H](CC(=O)N2CCCCC2)O[C@@H]1CO | i |

Additional records
| SMILES | ID4 SMM |
| --- | --- |
| COc1ccc(-c2cc(C(F)(F)F)n3nc(C(=O)NCCCN4CCOCC4)cc3n2)cc1OC | i |
| O=C(CNC(=O)c1ccco1)Nc1ccc(F)cc1 | i |
| COc1ccccc1-c1ccc2c(c1)O[C@H](CN(C)C(=O)c1cccnc1)[C@@H](C)CN([C@@H](C)CO)S2(=O)=O | i |
| COc1cccc2cc(-c3nnc(SCC(=O)Nc4cccc(F)c4)n3C)oc12 | i |
| COC(=O)c1ccccc1NC(=O)c1nc(S(=O)(=O)Cc2ccccc2)ncc1Cl | i |
| O=C(NCC(c1cccnc1)N1CCOCC1)C1CCCCC1 (centres undefined) | i |
| C[C@@H]1CN([C@@H](C)CO)C(=O)c2cc(C#CCN(C)C)cnc2O[C@@H]1CN(C)Cc1ccncc1 | i |
| Nc1ccc(-c2nnc(SCC(=O)Nc3cccc(C(F)(F)F)c3)n2-c2ccccc2)cc1 | i |
| CNC[C@H]1Oc2cc(-c3ccccc3F)ccc2S(=O)(=O)N([C@H](C)CO)C[C@@H]1C | i |
| COc1c(S(=O)(=O)NCC2CCCO2)ccc(Cl)c1Cl (centres undefined) | i |
| Cc1ccc(S(=O)(=O)NCC(=O)Nc2ccc(C(N)=O)cc2)cc1 | i |
| O=C(NCc1cccnc1)C1CCCN(S(=O)(=O)c2ccccc2)C1 (centres undefined) | i |
| O=C(O)CCCC(=O)Nc1ccc(Cl)c(Cl)c1 | i |
| C=CCSc1nccc(-c2sc3ccc(Cl)cc3c2C)n1 | i |
| C[C@H](CO)N1C[C@H](C)[C@@H](CN(C)C(=O)Cc2ccccn2)Oc2ncc(-c3cccc(C(=O)N(C)C)c3)cc2C1=O | i |
| C[C@H](NC(=O)C[C@H]1C[C@H]2c3cc(NC(=O)C4CCOCC4)ccc3O[C@H]2[C@@H](CO)O1)c1ccccc1 | i |
| C[C@H](CO)N1C[C@H](C)[C@H](CN(C)C)Oc2ncc(Br)cc2C1=O | i |
| O=C(N[C@@H]1C=C[C@@H](CC(=O)N2CCCCC2)O[C@@H]1CO)c1cccc(F)c1 | i |
| Cc1cccc(NC(=O)CSc2nnc(-c3ccc(Cl)cc3)n2-c2cccc(C)c2)c1 | i |
| CCC(=O)N(C)C[C@@H]1Oc2ncc(C#CCc3ccccc3)cc2C(=O)N([C@@H](C)CO)C[C@@H]1C | i |

Continued.
| SMILES | ID4 SMM |
| --- | --- |
| CCOc1ccc(NC(=O)CSc2nnc(-c3ccc(Cl)cc3)n2C)cc1 | i |
| C[C@H](CO)N1C[C@H](C)[C@@H](CN(C)C(=O)c2ccc(F)cc2)Oc2ncc(Br)cc2C1=O | i |
| O=C(c1ccccc1Cl)n1nc(-c2ccccc2)nc1NCc1ccco1 | i |
| CCc1c(C)sc(NC(=S)Nc2cc(OC)c(Cl)cc2OC)c1C(=O)OC | i |
| COC(=O)c1ccc(NC(=O)CSc2cc(C)c3ccccc3n2)cc1 | i |
| Cc1ccc(S(=O)(=O)N2C(=O)CCC2C(=O)Nc2ccc(I)cc2)cc1 (centres undefined) | i |
| CCCC#Cc1cnc2c(c1)C(=O)N([C@@H](C)CO)C[C@@H](C)[C@H](CN(C)C(=O)CCN1CCCCC1)O2 | i |
| O=c1c(-c2ccccc2)coc2cc(O)ccc12 | i |
| CCc1ccccc1NC(=O)CN(C)S(=O)(=O)c1ccc2ccccc2c1 | i |
| CCN(CC)C(=O)CSc1nc2sc(C)c(C)c2c(=O)[nH]1 | i |
| COc1ccc(Cl)cc1Nc1nc(N)nc(-c2cc3ccccc3o2)n1 | i |
| C[C@@H]1CN([C@@H](C)CO)C(=O)c2cc(Br)cnc2O[C@H]1CN(C)C(=O)C1CCC1 | i |
| COc1ccc(NC(=O)COc2ccccc2)cc1NC(=O)c1ccco1 | i |
| O=C(C[C@H]1C=C[C@H](NC(=O)Nc2cc(F)ccc2F)[C@H](CO)O1)NCCCN1CCOCC1 | i |
| COCC(=O)N(C)C[C@@H]1Oc2cc(C#Cc3cccnc3)ccc2S(=O)(=O)N([C@H](C)CO)C[C@@H]1C | i |
| CC(=O)N1CCN(c2ccc(OC[C@H]3CO[C@](Cn4ccnc4)(c4ccc(Cl)cc4Cl)O3)cc2)CC1 | i |
| C[C@H](O)C#Cc1ccc2c(c1)O[C@H](CN(C)C(=O)CN(C)C)[C@@H](C)CN([C@@H](C)CO)S2(=O)=O | i |
| COc1ccc(C)cc1S(=O)(=O)N1CCC(C(=O)Nc2cccc(SC)c2)CC1 | i |
| Cc1cc(C(=O)NN2C3CSC2CS3)no1 | i |
| Cc1cc(C)c(C#N)c(SCC(=O)Nc2ccc(C(N)=O)cc2)n1 | i |

(list continues)
| SMILES | ID4 SMM |
| --- | --- |
| CCOC(=O)Cn1c(=O)c(C(N)=S)cn(C(C)C)c1=O | i |
| Cc1cc(C)c(NC(=O)CN(c2ccc(Cl)cc2)S(C)(=O)=O)c(C)c1 | i |
| O=[N+]([O-])c1ccc2nc(CSc3nc4ccccc4o3)[nH]c2c1 | i |
| CCC(=O)N[C@@H]1CC[C@@H](CC(=O)NCC2CCCCC2)O[C@@H]1CO | i |
| Cc1ccc(S(=O)(=O)N(C)CC(=O)Nc2cccc(I)c2)cc1 | i |
| O=S(=O)(Nc1ccc2c(c1)OCCO2)c1csc(-c2cc(C(F)(F)F)on2)c1 | i |
| CC(Oc1ccccc1)C(=O)Nc1cc([N+](=O)[O-])ccc1O (centres undefined) | i |
| C[C@H](CO)N1C[C@H](C)[C@H](CN(C)Cc2ccc(C(=O)O)cc2)Oc2ncc(-c3ccc(C(=O)N(C)C)cc3)cc2C1=O | i |
| Cc1cccc(-n2c(SCC(=O)Nc3ccc(Br)cc3F)nnc2-c2ccccc2)c1 | i |
| Cc1c(CCC(=O)O)c(=O)oc2cc(OCC(=O)O)ccc12 | i |
| Cc1c2c(=O)[nH]ncc2c(-c2ccccc2)n1CCSCc1c(F)cccc1Cl | i |
| C[C@@H]1CN([C@H](C)CO)S(=O)(=O)c2ccc(C#CC3CCCC3)cc2O[C@H]1CN(C)Cc1cncnc1 | i |
| CC(C)CC(=O)N[C@H](C(=O)N[C@H](C(=O)N[C@@H](CC(C)C)[C@@H](O)CC(=O)N[C@@H](C)C(=O)N[C@@H](CC(C)C)[C@@H](O)CC(=O)O)C(C)C)C(C)C | i |
| CN(C)C(=O)C[C@H]1C=C[C@H](NC(=O)C2CC2)[C@H](CO)O1 | i |
| O=C(Nc1ccc(Cl)cc1C(=O)NCc1cccnc1)c1ccco1 | i |
| Cc1occc1C(=O)NCCc1ccc(S(N)(=O)=O)cc1 | i |
| Cc1cc(Cl)ccc1OCCNS(=O)(=O)c1cc([N+](=O)[O-])ccc1C | i |
| C[C@@H]1CN([C@H](C)CO)C(=O)c2ccccc2-c2ccccc2CO[C@@H]1CN(C)Cc1ccc(O)cc1 | i |
| Cc1ccc(-c2cnc3c(c2)C(=O)N([C@@H](C)CO)C[C@H](C)[C@H](CN(C)C)O3)cc1 | i |
| Cc1ccc(S(=O)(=O)N[C@H]2CC[C@@H](CC(=O)NCCc3ccncc3)O[C@@H]2CO)cc1 | i |

The list goes on.
| SMILES | ID4 SMM |
| --- | --- |
| Cn1c(=O)c2[nH]c(-c3ccc(Cl)cc3)c(O)c2n(C)c1=O | i |
| COC(=O)C(CC#Cc1ccc2c(c1)[C@]1(C(=O)N2)[C@H](c2ccccc2OCCO)N2[C@H](c3ccccc3)[C@H](c3ccccc3)OC(=O)[C@H]2[C@@H]1C(=O)N1CCc2cc(OC)c(OC)cc2C1)C(=O)OC | i |
| O=C(CSc1nc(Nc2ccccc2)nc(N2CCOCC2)n1)Nc1ccccc1Cl | i |
| CCCN(C)C[C@H]1Oc2cc(/C=C/c3ccccc3)ccc2S(=O)(=O)N([C@H](C)CO)C[C@@H]1C | i |
| Cc1cc(C)c(S(=O)(=O)N(C)CC(=O)Nc2ccc(Cl)cc2Cl)c(C)c1 | i |
| O=C(COc1ccc(Br)cc1Cl)Nc1ccccc1CO | i |
| C[C@H]1CN([C@@H](C)CO)S(=O)(=O)c2ccc(Br)cc2O[C@H]1CN(C)Cc1ccccc1 | i |
| CCOc1c(OC)cccc1C1C(C(=O)Nc2ccccc2OC)=C(C)Nc2ncnn21 (centres undefined) | i |
| COc1ccccc1-n1c(SCC(=O)Nc2ccccc2C)nc2ccc(I)cc2c1=O | i |
| CNC[C@@H]1Oc2ncc(/C=C/c3ccccc3)cc2C(=O)N([C@H](C)CO)C[C@@H]1C | i |
| CN(C)CCNc1oc(COc2ccc(Cl)cc2)nc1C#N | i |
| Cc1cc(C)c2nc(-c3ccccn3)cc(C(=O)Nc3cccc(Cn4cccn4)c3)c2c1 | i |

Some of the entries above, reformatted:
> O=C(CSc1ncn(-c2ccccc2)n1)Nc1ccc(Cl)cc1Cl
  ID4 SMM = i
> O=C(N[C@H]1C=C[C@H](CC(=O)N2CCc3ccccc3C2)O[C@@H]1CO)C1CC1
  ID4 SMM = i
